Rango-impB inh: qHTS Assay for Inhibitors of Rango (Ran-regulated importin-beta cargo) - Importin beta complex formation; actives 0.031% (n = 340,000); AID 540263, 2011; Potency, µM (doses to about 92.2 µM), for the others: at the highest dose inhibition of complex formation; Rango CFP/YFP FRET sensor + importin beta, 45 min; active = rising FRET ratio curve, often small or poorly fitted; inconclusive = mostly compound fluorescence or quenching in the first reads; inactive = flat curves in all reads;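 further: potency means the concentration at half of the fitted maximal effect; 0% = DMSO wells and 100% = buffer wells lacking importin beta; nearly all actives have a fitted effect of over 15% in size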
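FRET biosensor Rango (snurportin 1 IBB between N-terminal EYFP and C-terminal Cerulean), 50 nM in PBS/1 mM DTT/0.02% Tween-20/0.1% BSA, preincubated 5 min RT with compound; 0.125 microM importin beta added, 45 min RT, CFP/YFP FRET ratio read.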
Rango dissoc inh: qHTS Assay for Inhibitors of RanGTP induced Rango (Ran-regulated importin-beta cargo) - Importin beta complex dissociation; Snurportin-1 (Homo sapiens) + GTP-binding nuclear protein Ran (Homo sapiens) + Importin …; Biochemical FRET Rango-importin beta, RanGTP-induced dissociation; Potency, µM (top dose mostly 46.1 µM), for the others: top-dose activity change, negative = inhibition; actives 0.071% (n = 340,000); active means falling FRET ratio curve, often poorly fitted, with flat reads before Ran was added; inconclusive means other falling curves, or compound fluorescence or quenching; inactive means flat or rising ratio curve;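 further: potency means the concentration at half of the fitted maximal effect; % of control where 0% means no effect; nearly all actives have a fitted effect of over 45% in size; -100% = wells without RanGTP and RCC1; the record marks most hits as doubtful in a second field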
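Compounds sat 5 min at room temperature with 0.1 uM Rango biosensor plus 0.25 uM importin beta, then FRET pre-read. RanGTP-RCC1 (0.6 uM Ran, 2mM GTP, 0.2 uM RCC1) added for 45 min, and the CFP/YFP post-read measured blocked complex dissociation.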
miR-21 FLuc: qHTS Assay for Modulators of miRNAs and/orActivators of miR-21; HeLa miR-21 FLuc reporter, luciferase, 48 h; Potency, µM (titrated, usually from 38.3 µM), for the others: at the top dose reporter change, positive = more light; 340,000 tested, under 10 active; AID 2288, 2010; active = well fitted rising curve with a large enough effect; inconclusive = small, poorly fitted or top-dose-only effect; inactive = no such curve, though single readings can be large or run the other way;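 further: % of control where 0% means no effect; miR-21 action dims this reporter so a rising signal means less miR-21 action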
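HeLa cells endogenously expressing miR-21, stably carrying CMV-driven firefly luciferase with a downstream miR-21 binding site, 2000 cells/well. Titrations up to approximately 40 uM, 48 hours; luciferase luminescence read.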
GLA inh pH 4.5: qHTS Assay for Inhibitors of Human alpha-Galactosidase at pH 4.5 | purified enzyme, 4-MU-alpha-Gal fluorescence, pH 4.5 | AID 1467, 2008 | 230,000 tested, under 10 active | activity change, negative = inhibition, % at 105 µM | Alpha-galactosidase A (Homo sapiens), P06280; inconclusive = small, poorly fitted or top-dose-only inhibition, or a rising curve; inactive = flat fitted curve, though single readings scatter; no compound was filed as active;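 further: 0% = full activity with enzyme and -100% = basal without enzyme; dose as in the result columns while the protocol names 77 µM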
Target sequence (P06280 whole entry, looked up): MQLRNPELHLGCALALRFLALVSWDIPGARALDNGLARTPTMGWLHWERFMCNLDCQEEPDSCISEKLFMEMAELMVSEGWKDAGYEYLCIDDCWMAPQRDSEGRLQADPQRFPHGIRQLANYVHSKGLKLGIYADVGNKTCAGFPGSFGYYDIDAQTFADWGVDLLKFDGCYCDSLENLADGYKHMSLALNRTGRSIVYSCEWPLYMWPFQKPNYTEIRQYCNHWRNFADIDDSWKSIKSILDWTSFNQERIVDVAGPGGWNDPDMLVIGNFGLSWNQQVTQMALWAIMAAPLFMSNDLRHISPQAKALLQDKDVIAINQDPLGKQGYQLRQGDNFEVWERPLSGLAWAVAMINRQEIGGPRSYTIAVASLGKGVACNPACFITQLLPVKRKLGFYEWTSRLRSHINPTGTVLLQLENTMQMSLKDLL
* hit, by the source's call; ? = inconclusive; / = no result given. Not all compounds are listed. The share of hits here may be higher or lower than overall.

SMILES | Rango-impB inh | Rango dissoc inh | miR-21 FLuc | GLA inh pH 4.5
O=c1c2c([nH]c3ccc(Br)cc13)CCCC2 | -0.1% | 14% | 0% | -1
COc1ccccc1CNC(=O)CSc1n[nH]c(N)n1 | 3.8% | -1% | 4% | /
Cc1cccc(N2CC(c3nc4ccccc4[nH]3)CC2=O)c1 (centres undefined) | -0.8% | 15% | 0% | -26
COc1ccccc1N1CCN(CC(=O)c2c(C)[nH]c3cc(C)ccc23)CC1 | -3.3% | 1% | 1% | 2
CC(=O)c1ccc2c(c1)C1C=CCC1C(c1cc3c(cc1Br)OCO3)N2 (centres undefined) | 5.6% | -11% | / | /
CC(C)CCSc1nnc(N)s1 | -2.3% | 11% | -17% | 2
CNc1ccc(N=Nc2cccc3ncccc23)cc1 | -2.3% | -21% | / | /
CC(C)Cc1cc(C(=O)NCCCN2CCOCC2)no1 | 0.1% | -3% | -6% | 6
O/N=C/Cc1[nH]c2ccccc2c1-c1ccccc1 | 2.0% | 19% | 1% | /
O=C(c1ccccc1F)N(Cc1ccc(F)cc1)C1CCS(=O)(=O)C1 (centres undefined) | -0.5% | -16% | -2% | -3
O=C(c1cc2c(=O)n3ccccc3nc2s1)N1CCN(c2cccc(Cl)c2)CC1 | ? | ? | -1% | /
COc1ccccc1NS(=O)(=O)c1ccc2ccccc2c1 | 1.5% | 13% | -3% | /
O=C(NCc1ccc2c(c1)OCO2)C1CCC(CNc2c(N3CCCCC3)c(=O)c2=O)CC1 (centres undefined) | -0.7% | -1% | -8% | 2
COc1ccc(/C=N/OCC(=O)NC(c2ccccc2)c2ccccc2)c(OC)c1 | -3.7% | -8% | 1% | 3
Cc1ccc(C)c(NC(=S)NC(C)C(c2ccccc2)N2CCN(C)CC2)c1 (centres undefined) | -0.6% | -12% | 4% | 2
CCC(C(=O)OCC(=O)Nc1cc(Cl)ccc1Cl)c1ccccc1 (centres undefined) | 0.1% | 7% | -6% | -6
CCOc1ccccc1N1CC(C(=O)N(CC)CC(=O)Nc2ccc3c(c2)OCCO3)CC1=O (centres undefined) | ? | 1% | / | /
COc1ccc(C(=O)NN)cc1COc1ccc(Br)cc1 | -1.6% | 3% | 3% | 3
COc1ccccc1N1CCN(C(=O)c2cc(-c3ccc(F)cc3)[nH]c2C)CC1 | -2.0% | 3% | 22% | /
C#Cc1ccc([C@@H]2C=C(C(=O)NCc3ccccc3)O[C@H](OCC)[C@H]2CCCO)cc1 | 7.5% | -5% | -1% | -8
O=C(Nc1ccccc1)c1nc[nH]c1C(=O)NCc1ccccc1 | 1.5% | -2% | / | /
Cc1cc(C)c(S(=O)(=O)Nc2cccnc2)c(C)c1 | 3.4% | -6% | -6% | -6
O=C(NCc1cccs1)C1CCN(S(=O)(=O)c2ccccc2F)CC1 | 1.3% | 4% | 5% | 3
O=C(COC(=O)c1cccc([N+](=O)[O-])c1)NCc1cccs1 | -0.9% | 25% | 2% | 11
O=C(NCCc1ccc([N+](=O)[O-])cc1)c1ccccc1 | -3.0% | -10% | -32% | 1
Cc1cccc(N=C2Sc3nc4c(C)c(C)ccc4cc3CN2CCN2CCOCC2)c1 | -0.2% | 10% | -10% | -7
CC(Oc1ccccc1)C(=O)Nc1c2c(nn1-c1ccccc1)CS(=O)C2 (centres undefined) | 5.8% | 19% | -1% | /
CC(=O)Nc1ccc(C(=O)n2nc(C)cc2C)cc1 | -0.9% | 3% | -7% | 7
Cc1ccccc1/C=N/N=C1/NC(=O)CCS1 | 1.0% | -16% | 13% | -9
CCOC(=O)C1CCN(C(=O)C(C)Sc2ccc(Cl)cc2)CC1 (centres undefined) | -0.7% | -10% | -4% | -1
Cc1cc(=O)oc2c(C)c3occc3cc12 | -0.1% | 0% | -1% | /
O=C(O)c1ccc(CSc2nc3ccccc3[nH]2)cc1 | -0.9% | 0% | -6% | /
Cc1c(NC(=O)CSCc2ccc(Cl)cc2Cl)cccc1C(=O)O | 0.2% | -4% | -23% | /
CC(=O)c1ccc(N2C(=NC(=O)C3CCCCC3)SC3CS(=O)(=O)CC32)cc1 (centres undefined) | -0.2% | -8% | -5% | /
COCCNC(=O)Nc1ccc2c(c1)N(C)C(=O)c1ccccc1S2 | 0.3% | -1% | -6% | 4
O=C1C(C=NCc2cccnc2)=C(O)c2ccccc21 | -0.1% | 17% | -51% | -8
O=S1(=O)CCN2N=C(C3CC3)SC2=N1 | -0.7% | 0% | 0% | 0
CCNC(=O)Cn1cc(C(F)(F)F)cc(Cl)c1=O | -0.1% | -10% | -12% | 8
CCOC(=O)C1CCN(C(=O)CN(c2ccc(OC)c(OC)c2)S(=O)(=O)c2ccccc2)CC1 | -5.5% | -14% | -9% | 3
CCCOc1ccccc1/C=C1/C(=O)ON=C1C | -4.5% | -10% | 1% | /
CCOC(=O)C1CCN(S(=O)(=O)c2ccc(OC)c(C(=O)N3CCCCC3)c2)CC1 | 1.8% | 0% | -1% | /
O=C(CSc1nnnn1-c1ccccc1Cl)Nc1ccc2c(c1)OCCO2 | -1.6% | -14% | -14% | 2
Cc1cc(S(=O)(=O)NCC2CCCO2)c(C)cc1Br (centres undefined) | 3.1% | 5% | -3% | /
CC(C)CNC(=S)NC1CC2CCCC(C1)N2Cc1ccco1 (centres undefined) | 0.0% | 7% | -7% | -4
O=C(COc1ccc(S(=O)(=O)NC2CCCCC2)cc1)N1CCN(c2cccc(Cl)c2)CC1 | -0.2% | 1% | ? | -5
COc1ccccc1NC1=Nc2cccc3cccc1c23 | 10% | 42% | -15% | -1
O=C(Cc1ccsc1)N1CCc2c([nH]c3ccccc23)C1c1ccccn1 (centres undefined) | ? | ? | -4% | 2
C/C(=N\NC(=O)CSc1nc(C)cc(C)n1)c1ccc([N+](=O)[O-])cc1 | -0.2% | -2% | 3% | -2
c1ccc(C2=Nn3c(nnc3-c3cccnc3)SC2)cc1 | -1.4% | -9% | -7% | 1
CCOCc1nnc(NC(=O)c2ccc3c(c2)OCO3)s1 | -0.7% | 8% | / | /
O=C(Nc1c2c(nn1-c1ccc(F)cc1)CS(=O)C2)c1ccc2c(c1)OCO2 (centres undefined) | -0.8% | -9% | 0% | /
COc1ccc(OC)c(N=C(C)C2=C(O)COC2=O)c1 | 2.6% | 3% | -3% | 4
CC1(C)C(=O)Nc2ccccc2N1C(=O)COC(=O)/C=C/c1ccc(OC(F)F)cc1 | -0.6% | 13% | / | /
CC(=O)N(CCCN1CCOCC1)Cc1ccncc1 | 6.9% | -6% | 0% | 5
COc1ccc(OCC(=O)NNC(=O)C2CCC2)cc1 | 0.8% | -2% | / | /
CN(CCC1CCCCO1)Cc1cn(C)nc1-c1ccc2c(c1)OCCO2 (centres undefined) | -2.4% | -5% | -8% | -19
CN(C)c1ccc(NC(=O)c2cc3c(=O)n4ccccc4nc3n2C)cc1 | -6.0% | -16% | / | /
Cc1ccc(NC(=S)N(CCN2CCCCC2)Cc2ccco2)cc1 | 2.0% | 29% | -2% | -5
O=C(c1ccc2c(c1)OCO2)N1CCOCC1 | 1.7% | -5% | -5% | 0
COc1ccc(C2C(C#N)=C(/N=C/N3CCOCC3)OC3=C2C(=O)CC(C)(C)C3)cc1OC (centres undefined) | -4.0% | 3% | 0% | 8

(continued)
SMILES | Rango-impB inh | Rango dissoc inh | miR-21 FLuc | GLA inh pH 4.5
CCn1cc(C2=NOC(C(=O)Nc3cccc(C(C)=O)c3)C2)c(C)n1 (centres undefined) | 8.6% | -4% | 4% | -2
CCCc1cc(=O)[nH]c(SCC(=O)Nc2c(C)cccc2C)n1 | 6.9% | 9% | 0% | -2
Nc1nc(-c2ccccc2)c(N=Nc2ccc(Cl)cc2)s1 | 0.6% | 0% | 1% | -9
O=C(N/N=C\c1cc(Br)cs1)C1COc2ccccc2O1 (centres undefined) | 2.6% | -5% | 12% | -1
CCc1cccc2c(C(=O)COC(=O)/C=C/c3ccc(O)c(OC)c3)c[nH]c12 | ? | -13% | -5% | -7
COc1ccc(N2C(S)=C(C#N)C(=O)NC2c2ccc(OC)c(OC)c2)cc1 (centres undefined) | -3.1% | 12% | 2% | 5
COc1cc(S(=O)(=O)Nc2ccc3nc(C)sc3c2)ccc1NC(C)=O | ? | -22% | / | /
COC(=O)c1[nH]c2cccc(Cl)c2c1NC(=O)CN1CCN(CCO)CC1 | 1.2% | 13% | -9% | 3
COc1ccc(C(=O)OCC(=O)NC(=O)NC2CCCC2)cc1OC | -1.3% | 17% | / | /
COc1ccc(C2SCCN2S(=O)(=O)c2ccc(NC(C)=O)cc2)cc1 (centres undefined) | -4.4% | 10% | 18% | -4
COc1ccc(C2=NN(c3nc(-c4ccc(CNC(C)=O)cc4)cs3)C(c3ccco3)C2)cc1 (centres undefined) | ? | -22% | 0% | /
CN(C)C(CNC(=O)CN1C(=O)NC2(CCc3ccccc32)C1=O)c1ccco1 (centres undefined) | 4.6% | 1% | -3% | 7
Cc1cccc(-c2oc3ccc(-c4ccc5c(c4)OCO5)cc3c2-c2ccc(OC3CCCCO3)cc2)c1 (centres undefined) | 2.9% | 3% | / | /
O=C(C1CCN(c2ncnc3c2sc2cccc(F)c23)CC1)N1CCCC1 | / | / | -25% | -4
Cc1ccn(CC(=O)N2CCCC(N3CCN(Cc4ccc5c(c4)OCO5)CC3)C2)n1 (centres undefined) | -0.9% | -1% | -4% | /
O=C(CCCN1C(=O)/C(=C\c2ccco2)SC1=S)Nc1cccc2ccccc12 | -4.0% | -14% | 7% | -1
N#Cc1ccc(OC(=O)C2CCN(C3=NS(=O)(=O)c4ccccc43)CC2)cc1 | 2.1% | 0% | / | /
O=C(Nc1cc(Cl)cc(Cl)c1)c1ccno1 | -1.9% | -7% | -3% | /
COc1ccc(N2CC(C(=O)N3CCc4ccccc43)CC2=O)cc1 (centres undefined) | 6.3% | 5% | / | /
COc1ccc(CNC(=O)C(C)N(C)Cc2cccc(F)c2)cc1 (centres undefined) | -3.2% | 11% | 4% | /
CC(=O)C1=C(O)C(=O)N(c2ccc(S(=O)(=O)Nc3nccs3)cc2)C1c1ccc([N+](=O)[O-])cc1 (centres undefined) | -0.9% | 6% | 2% | -8
CCCCCCCCCCOC(=O)Cn1c(COc2ccc(C)cc2)[n+](C)c2ccccc21 | 4.7% | 37% | ? | /
COc1ccc(C2C(C(=O)NCCN(C)C)c3ccccc3C(=O)N2C)cc1OC (centres undefined) | -0.4% | 0% | -1% | -2
Cc1ccc(C=C2C(Cl)=C(Cl)C(Cl)=C2Cl)cc1 | -0.5% | -4% | -3% | -20

2 entries drawn at random from the list so far:
SMILES | Rango-impB inh | Rango dissoc inh | miR-21 FLuc | GLA inh pH 4.5
c1ccc(C2=Nn3c(nnc3-c3cccnc3)SC2)cc1 | -1.4% | -9% | -7% | 1
CCNC(=O)Cn1cc(C(F)(F)F)cc(Cl)c1=O | -0.1% | -10% | -12% | 8

Four entries from above, with each value named.
CC(=O)C1=C(O)C(=O)N(c2ccc(S(=O)(=O)Nc3nccs3)cc2)C1c1ccc([N+](=O)[O-])cc1 (centres undefined)
  Rango-impB inh = -0.9% | Rango dissoc inh = 6% | miR-21 FLuc = 2% | GLA inh pH 4.5 = -8
CCCCCCCCCCOC(=O)Cn1c(COc2ccc(C)cc2)[n+](C)c2ccccc21
  Rango-impB inh = 4.7% | Rango dissoc inh = 37% | miR-21 FLuc = ? | GLA inh pH 4.5 = /
COc1ccc(C2C(C(=O)NCCN(C)C)c3ccccc3C(=O)N2C)cc1OC (centres undefined)
  Rango-impB inh = -0.4% | Rango dissoc inh = 0% | miR-21 FLuc = -1% | GLA inh pH 4.5 = -2
Cc1ccc(C=C2C(Cl)=C(Cl)C(Cl)=C2Cl)cc1
  Rango-impB inh = -0.5% | Rango dissoc inh = -4% | miR-21 FLuc = -3% | GLA inh pH 4.5 = -20
